# Compound activity from PubChem BioAssay.
# FGF22 binding – shifts melting point of recombinant human FGF22 | 340,000 compounds, 1.5% hits | AID 651658 | calls only at 9.99 µM | Q9HCT0 | recombinant FGF22 thermal shift, SYPRO orange fluorescence; percent of sucrose octasulfate shift, DMSO zero;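 active = melting point raised past a set limit in the mean and every replicate; inconclusive = no clear call; three in four hits are not shown here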
# Beta2AR agonist – agonists of human beta-2 adrenergic receptor inducing internalization; P07550; Am2.2-beta2AR cells, FAP receptor internalization, flow cytometry; reference of the scale not given here; response, % (test concentration not listed); 340,000 compounds, 0.43% hits; AID 504454;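 active = response above a set limit, near 3 SD of response in nonfluorescent compounds, cut at about 42% in these data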;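 note: stock transfer was 100 nL into about 11 µL; a reference agonist was the positive control; negative values mostly stem from fluorescent compounds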
# LANA-H2A inh – blocks KSHV LANA binding to histone H2A/H2B; AID 2629; Q9QR71; 320,000 compounds, 0.6% hits; cell-free LANA-H2A/H2B peptide, fluorescence polarization; inhibition, % (no concentration beside the values); in the data active = inhibition mostly above about 10%, no sharp cut-off; inactive = mostly below about 6.7%;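 note: stock transfer was 7.5 nL into about 10 µL; 0% = median of vehicle wells and 100% = median of positive control wells; one replicate is shown; the record names a cut of 25% in any replicate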
# Target sequence (Q9QR71 whole entry, looked up): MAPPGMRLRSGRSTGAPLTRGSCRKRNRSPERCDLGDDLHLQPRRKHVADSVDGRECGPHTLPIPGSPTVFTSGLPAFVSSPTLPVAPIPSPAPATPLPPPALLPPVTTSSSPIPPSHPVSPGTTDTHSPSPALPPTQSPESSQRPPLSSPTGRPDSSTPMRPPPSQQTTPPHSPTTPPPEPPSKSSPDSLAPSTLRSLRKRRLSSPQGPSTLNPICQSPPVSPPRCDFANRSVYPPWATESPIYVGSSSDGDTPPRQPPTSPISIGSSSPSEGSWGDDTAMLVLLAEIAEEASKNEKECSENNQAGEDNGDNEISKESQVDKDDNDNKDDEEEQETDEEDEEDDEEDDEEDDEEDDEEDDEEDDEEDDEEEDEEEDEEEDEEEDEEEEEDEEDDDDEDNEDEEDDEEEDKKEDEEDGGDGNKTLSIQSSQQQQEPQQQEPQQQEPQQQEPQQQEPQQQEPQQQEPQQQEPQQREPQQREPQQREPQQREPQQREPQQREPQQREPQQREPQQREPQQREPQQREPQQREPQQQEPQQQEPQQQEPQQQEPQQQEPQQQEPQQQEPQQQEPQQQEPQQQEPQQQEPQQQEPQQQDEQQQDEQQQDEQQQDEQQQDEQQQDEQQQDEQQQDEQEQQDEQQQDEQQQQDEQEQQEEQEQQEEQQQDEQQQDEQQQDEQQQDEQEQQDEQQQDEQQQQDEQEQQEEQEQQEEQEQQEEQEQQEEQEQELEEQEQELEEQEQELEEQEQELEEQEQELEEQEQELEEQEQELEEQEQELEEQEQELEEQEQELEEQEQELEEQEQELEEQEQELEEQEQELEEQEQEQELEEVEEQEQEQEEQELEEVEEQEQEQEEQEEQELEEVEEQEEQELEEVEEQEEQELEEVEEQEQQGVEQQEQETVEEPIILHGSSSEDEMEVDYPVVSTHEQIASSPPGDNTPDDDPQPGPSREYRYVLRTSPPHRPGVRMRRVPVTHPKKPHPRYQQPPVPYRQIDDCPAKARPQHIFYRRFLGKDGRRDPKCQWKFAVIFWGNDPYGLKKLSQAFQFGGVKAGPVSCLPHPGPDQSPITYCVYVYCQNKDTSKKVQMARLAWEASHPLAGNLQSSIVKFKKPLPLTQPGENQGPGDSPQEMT
# HNF4A DNA FP – change in binding of human HNF4 alpha to DNA; activity change, % at 10 µM; 360,000 compounds, 0.3% hits; HNF4a-FITC DNA binding, fluorescence polarization, 1 h; P41235; AID 1224865; in the data active = activity change above about 30%, passing the limit was not always enough;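 note: controls were the assay level and a saturating level of protein; the project sought stronger binding though the title names inhibitors; some compounds called inactive have numbers as strong as hits; positive values seem to mean higher polarization but the record does not say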
# UCH37 DUB inh – blocks the human deubiquitinase UCH37; Q9Y5K5; purified proteasome/UCH37, Ub-AMC cleavage fluorescence; inhibition, % (concentration not given with the values); 330,000 compounds, 0.33% hits; AID 588478;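 active = mean of two replicates above 20%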;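 note: 0% = compound-free wells with enzyme and 100% = wells lacking proteasome; stock transfer was 100 nL into about 20 µL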
#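 Assay system: Proteasome-bound UCH37. Buffer or medium: pH 7.4 Tris-HCl (50 mM) with ovalbumin, ATP-MgCl2, DTT. Incubation: 30 min preincubation with enzyme, 25 min cleavage at room temperature. Measured by: fluorescence, ex 355 nm, em 460 nm. Read-out basis: percent inhibition. Control set: wells without proteasome as full block, compound-free enzyme plus substrate as uninhibited.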
# ALR H2O2 inh – human ALR oxidase inhibition via reduced H2O2; inhibition, % (concentration not given with the values); purified ALR, DTT oxidation, H2O2 HRP-luminol luminescence; 290,000 compounds, 3.8% hits;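 active = mean and each replicate at 75% or more; inconclusive = only one of the two met; inactive = neither met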;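 note: stock transfer was 7.5 nL into about 7.5 µL; 0% = neutral wells and 100% = wells with inactivated enzyme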
# E coli growth – E. coli growth inhibition | 330,000 compounds, 0.21% hits | Escherichia coli growth, OD600, 23 h; active compounds read low | OD600 absorbance (test concentration not listed);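 active = OD600 absorbance below the run mean of sample wells minus 3.6 SD, in any replicate, cut at about 0.56 in these data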;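 note: stock transfer was 300 nL into about 60 µL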
# Active calls of the source: *; i = inactive; ? = inconclusive; · = not tested or not shown. A portion of the library. The share of hits here may be higher or lower than overall.
SMILES,FGF22 binding,Beta2AR agonist,LANA-H2A inh,HNF4A DNA FP,UCH37 DUB inh,ALR H2O2 inh,E coli growth
COc1ccc(C)cc1S(=O)(=O)N1CCN(S(=O)(=O)c2cc(C)ccc2OC)C(C)C1 (stereo unspecified),·,4.5,-4.6,3.3,3.1,-7.4,0.693
Cc1coc2cc3oc(=O)c(Cc4ccccc4)c(C)c3cc12,i,10.8,1.3,0.8,-11.3,-4.9,0.715
Cc1c(C(=O)N/N=C/c2ccccc2)[nH]c2ccc(Cl)cc12,i,-14.6,-2.6,0.5,·,-8.4,·
CSc1ccc(/C=C/c2ccc3cccc(O)c3n2)cc1,i,8.4,-3.5,0.8,-5.9,-8.2,0.714
O=C(CN(C(=O)c1csnn1)c1ccccc1Cl)NC1CCCCC1,i,-22.2,·,1.6,5.2,·,0.685
Cc1cc(C)c(C)c(OCCCCn2cnc3ccccc3c2=O)c1,·,-1.9,0.7,-0.2,-0.9,-7.2,0.657
O=C(OCCCN1CCCCC1)c1ccc(O)cc1,·,-4.8,-0.8,3.3,2.5,4.0,0.745
CCC(CO)Oc1cc(NC(=O)c2ccc(F)cc2)c2ncn(C(C)C)c2c1 (stereo unspecified),i,-9.2,-0.1,-0.3,2.4,-16.3,0.779
O=C(Nc1ccccc1OC(F)F)c1ccc(S(=O)(=O)N2CCOCC2)cc1,i,2.4,-2.2,-0.3,-0.3,3.1,0.682
Cc1cc(OCc2nn[nH]n2)c2c(C)c(Cc3ccccc3)c(=O)oc2c1,·,-10.7,3.0,-1.2,-204.8,33.7,0.68
CC(C)CCOP(=O)(c1ccccc1)c1ccccc1,·,3.0,-7.8,-3.0,7.5,-5.0,0.7
CC(=O)CCc1c(C)nc2ccc(C)cc2c1Cl,·,4.0,-2.6,-2.5,1.7,42.5,0.687
Clc1ccc(CNCc2cccs2)c(Cl)c1,i,-1.1,-3.2,0.3,1.2,-6.2,0.631
CN1C(=O)N(c2ccc(Cl)cc2)C(C)(O)CC1(C)C (stereo unspecified),i,3.8,1.6,-2.5,2.5,-8.9,0.604
CNC(=O)N(O)C1N(NC(=O)Nc2cccc3ccccc23)C(=S)SC1(C)C (stereo unspecified),i,-8.0,-1.4,-2.1,6.2,·,0.677
CCc1nnc(NC(=O)Nc2ccccc2OC)s1,·,-1.1,2.6,-4.8,1.8,1.1,0.715
CCn1c(=O)c2sccc2n(Cc2ccccc2)c1=O,·,3.2,-0.2,-1.5,-0.6,-6.8,0.669
Cc1nc(SCC(=O)NCCN2C(=O)CSC2=O)nc(C)c1C,i,-2.5,-8.6,-2.4,0.5,1.0,0.699
O=S(=O)(c1ccc2[nH]c3c(c2c1)CCCC3)N1CCCCC1,i,3.8,18.0*,-2.9,2.8,-2.1,0.668
COc1ccccc1N1CCN(C(=O)c2ccc3c(=O)n4c(nc3c2)CCCCC4)CC1,i,-8.2,-2.4,-0.5,2.6,24.9,0.703
CC1(C)Cc2ccccc2C(=NC(Cc2ccccc2)C(=O)O)N1 (stereo unspecified),i,0.9,0.7,3.0,1.6,-7.0,0.627
O=C(CN1CCOCC1)Nc1ccc(N2CCN(c3ccccc3)CC2)c(F)c1,i,7.2,-204.3,1.9,4.7,?,0.725
O=C(Nc1cccc2ccccc12)NC(Cc1ccccc1)C(=O)O (stereo unspecified),i,8.5,3.7,1.9,-0.8,-35.6,0.641
CCS(=O)(=O)N1CCC(c2nc(-c3ccc(C)cc3)no2)CC1,·,-9.2,-0.6,-0.1,1.4,-1.2,0.728
COc1ccc(N=C2C(=O)Nc3ccc(C)c(Br)c32)cc1,i,3.0,2.5,-1.4,4.2,·,0.705
# Next section
SMILES,FGF22 binding,Beta2AR agonist,LANA-H2A inh,HNF4A DNA FP,UCH37 DUB inh,ALR H2O2 inh,E coli growth
COc1cccc(NC(=O)CN(C)C(=O)c2oc3c(ccc4ccccc43)c2C)c1,i,2.9,·,1.9,-0.1,·,0.708
CCC(C)N=C1Sc2nc3ccc(C)cc3cc2CN1CCOC (stereo unspecified),i,-7.2,2.3,1.2,2.2,31.9,0.686
Cc1cc(C(=O)OCC(=O)Nc2cc(S(=O)(=O)N3CCOCC3)ccc2Cl)c(C)o1,·,3.1,1.7,2.6,1.8,-0.9,0.639
COC(=O)C1=C(C)N(Cc2cccnc2)C(=O)C1,·,3.8,-1.0,-0.6,-1.0,32.4,0.678
Cc1nc(N)c(C#N)c(-c2ccc3c(c2)OCO3)c1C,i,-4.5,0.9,-1.2,-133.0,-5.9,0.666
COc1cccc(CNC(=O)C(Cc2ccccc2)n2cccc2)c1 (stereo unspecified),i,9.8,-3.8,3.1,2.0,-2.5,0.659
N#CC(C#N)=C1C(=O)N(CCN2CCCCC2)c2ccccc21,i,10.1,0.4,7.2,5.6,-6.6,0.607
O=C(CSc1ncnc2c(-c3ccc(Cl)cc3)nsc12)c1ccccc1,i,1.0,-6.9,7.6,-22.4,-3.0,0.654
COc1ccc(OC)c(-c2nn(-c3ccccc3)cc2C(=O)NCC2CCCO2)c1 (stereo unspecified),i,-7.9,0.4,-0.5,3.4,·,0.722
COc1ccc(CCNC(=O)CCn2c(SCC(=O)N3CCCC3)nc3ccccc3c2=O)cc1OC,i,-19.6,-3.3,0.6,-0.1,-7.2,0.686
CCOC(=O)c1c(NC(=O)CCNCc2ccco2)sc2c1CCC2,·,·,1.6,·,4.3,29.0,0.63
COCC1CCCN(Cc2cn(-c3ccccc3F)nc2-c2cc(C)sc2C)C1 (stereo unspecified),i,8.4,-8.9,0.5,0.8,-4.7,0.678
Brc1ccc2c(c1)C(c1ccc(N3CCOCC3)cc1)=NNC(c1cccs1)=N2,·,-9.0,-0.9,37.3*,1.0,-5.9,0.718
NC1=NC[C@H](Cc2ccc(O)cc2)N1CC1CCCCC1,i,-5.2,2.7,-1.2,0.9,89.6*,·
COc1ccc(-c2nc(CSCC(=O)N3CCc4ccccc43)c(C)o2)cc1OC,·,-1.7,-5.5,-1.1,-1.7,99.4*,0.731
Oc1ccc(/C=N/N2CCN(Cc3ccccc3)CC2)cc1,i,-13.9,6.7,1.9,·,81.8*,·
CC(=O)c1ccc(N2CCN(C(=O)c3cc(-c4ccncc4)nc4ccc(Br)cc34)CC2)cc1,i,16.2,3.4,0.3,5.1,-4.9,0.724
Cc1ccc(C)c(NC(=O)COC(=O)CCCN=C2NS(=O)(=O)c3ccccc32)c1,·,-2.8,0.3,1.5,2.8,·,0.737
COc1ccc(CNC(=O)C(C)N=C2NS(=O)(=O)c3ccccc32)cc1OC (stereo unspecified),·,6.4,-3.2,4.8,1.6,4.3,0.69
Cc1ccc(NS(=O)(=O)c2cccc3cccnc23)cc1Cl,i,-0.1,-2.1,-1.3,0.7,1.9,0.681
Cc1ccc(OS(=O)(=O)c2c(C)nn(C)c2Cl)c(C)c1,i,-2.4,-1.8,-1.9,5.5,-11.8,0.692
Cc1ccc(C(C)C)c(OCCN)c1,i,-0.1,-3.9,-2.7,2.7,-7.0,0.678
COc1cc(OC)cc(C(=O)NNC(=S)NC2CC2)c1,i,-2.0,0.0,1.4,1.5,12.7,0.667
CCN(CC)CCNc1nc2cc(OC)c(OC)cc2c2nc(-c3ccccc3)nn12,·,7.0,-3.6,-2.9,-110.5,·,0.662
CN1CCN(c2ccc(CNS(=O)(=O)c3ccc(F)cc3Cl)cc2)CC1,i,-8.4,0.3,-3.8,2.2,-1.0,0.657
# (continued)
SMILES,FGF22 binding,Beta2AR agonist,LANA-H2A inh,HNF4A DNA FP,UCH37 DUB inh,ALR H2O2 inh,E coli growth
O=C(Cn1cc(/C=N/NC(=O)c2cccc(C(F)(F)F)c2)c2ccccc21)Nc1ccc(F)cc1,i,3.8,-9.4,0.6,·,-1.9,·
N#CC(NC(=O)OCc1ccccc1)c1ccccc1 (stereo unspecified),i,-3.3,8.0,0.5,1.4,-1.9,0.693
Cc1ccc(NC(=O)CN(C)C(=O)c2ccccc2Sc2ccccc2C#N)cc1,·,2.8,-13.4,4.1,4.8,6.1,0.679
CCOC(=O)c1ccc(NC(=O)CCNS(=O)(=O)c2ccc3c(c2)oc(=O)n3C)cc1,·,-1.6,1.1,1.8,1.2,-13.1,0.708
NC(=O)C12C(=O)NC(=O)C1(C(=O)O)C21CCCC1 (stereo unspecified),i,4.2,·,-1.5,·,·,·
ClCC1CN(Cc2ccccc2Cl)CCO1 (stereo unspecified),i,0.7,1.2,-0.6,0.4,-9.4,0.647
CCOc1cc2[nH]c(=O)n(CCc3ccc(OC)c(OC)c3)c(=O)c2cc1OCC,·,5.2,-3.3,1.7,-2.5,-14.4,0.744
O=C(c1cccc(Cl)c1)c1nn(-c2ccccc2)c(=O)cc1C(F)(F)F,·,13.6,0.2,-0.3,4.3,19.5,0.697
O=C(NCCSc1ccccc1)c1cccnc1,·,-2.8,-1.3,1.5,1.8,-4.1,0.702
COc1ccc(Nc2ncnc3scc(-c4ccc(OC)cc4)c23)cc1,i,18.1,5.4,5.8,-0.4,-12.6,0.731
COC(=O)c1ccc(C(=O)OC)c(NC(=O)CN(c2ccccc2)S(=O)(=O)N(C)C)c1,i,4.3,5.8,4.0,-6.6,-3.6,0.643
COC(=O)c1cn(NC(=O)CC2CCCCC2)c(=O)c2ccccc12,·,-18.3,3.9,0.1,1.0,0.7,0.711
COc1ccc(N2CCN(C(=O)CCC(=O)N3CC(C)Oc4ccc(C)cc43)CC2)cc1 (stereo unspecified),i,17.8,5.2,6.8,3.4,?,0.792
COc1ccc(Cl)cc1N(C(C)C(=O)O)S(C)(=O)=O (stereo unspecified),i,-0.8,-1.9,2.4,-2.9,·,0.67
NC(=O)CSc1nnc(-c2cnccn2)n1Cc1ccco1,i,-8.2,1.4,1.2,1.1,-0.5,0.703
O=C(CSc1nc(Nc2ccccc2)nc(N2CCOCC2)n1)Nc1ccc([N+](=O)[O-])cc1,i,2.0,1.9,2.5,2.0,-3.1,0.707
COc1ccc(CCNC(=O)CCn2c(SCC#N)nc3ccccc3c2=O)cc1OC,·,18.2,-1.6,-2.4,1.0,5.1,0.672
CN(Cc1nc2ccccc2c(=O)[nH]1)C(=O)c1cc(-c2ccc(Br)cc2)nc2ccccc12,i,17.8,·,-0.7,0.0,·,0.721
CCOc1ccc(C(F)(F)F)cc1NC(=O)c1ccc(OC)c([N+](=O)[O-])c1,i,-10.4,1.8,-2.2,-0.1,-2.2,0.628
COc1ccc(/C(C)=N\Nc2nc(-c3ccc(Cl)cc3)cc(C(F)(F)F)n2)cc1OC,i,11.3,-1.6,1.6,·,-3.5,·
CCOc1ccc(S(=O)(=O)NCc2ccccc2OC)cc1,i,13.0,1.9,3.4,0.6,-3.7,0.639
CCOc1ccc(CN2CCNC(=O)C2CC(=O)NCCCn2ccnc2)cc1 (stereo unspecified),i,0.4,-5.4,-2.6,6.0,-1.6,0.686
COc1cccc2sc(=NC(=O)CCS(=O)(=O)c3ccc(C)cc3)n(C)c12,i,-4.6,-0.9,0.5,-2.1,-4.9,0.644
CC1=C(CC(=O)O)c2cc(F)ccc2/C1=C\c1ccc(S(C)=O)cc1 (stereo unspecified),i,-4.5,0.9,1.9,2.4,-17.7,·
COc1ccc(-n2cnnc2SCC(=O)N(C)C2CCS(=O)(=O)C2)cc1 (stereo unspecified),·,4.2,-1.0,-0.7,-1.8,-4.9,0.662
CCN(CC(=O)Nc1cccc(OC)c1)C(=O)c1cccc(S(=O)(=O)N2CCc3ccccc32)c1,i,-5.4,0.6,4.0,5.4,-8.3,0.709
CCOC(=O)c1c(CSC(=N)N)n(C)c2cc(Br)c(OC(C)=O)cc12,i,3.6,-5.1,-0.7,5.9,?,0.657
